High-throughput results from PubChem BioAssay.
Rce1 inh = blocks yeast Ras-converting enzyme; yeast membranes, quenched prenylated peptide cleavage fluorescence; calls only; 290,000 compounds, 0.27% hits; AID 2563;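 active = fall in fluorescence gain of 50% or more versus controls, with final raw signal at or below 3038400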;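 also: plate controls were neutral control wells for no effect and wells lacking membranes for full effect; tested at 10 µM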
Target sequence (Q03530 whole entry, looked up): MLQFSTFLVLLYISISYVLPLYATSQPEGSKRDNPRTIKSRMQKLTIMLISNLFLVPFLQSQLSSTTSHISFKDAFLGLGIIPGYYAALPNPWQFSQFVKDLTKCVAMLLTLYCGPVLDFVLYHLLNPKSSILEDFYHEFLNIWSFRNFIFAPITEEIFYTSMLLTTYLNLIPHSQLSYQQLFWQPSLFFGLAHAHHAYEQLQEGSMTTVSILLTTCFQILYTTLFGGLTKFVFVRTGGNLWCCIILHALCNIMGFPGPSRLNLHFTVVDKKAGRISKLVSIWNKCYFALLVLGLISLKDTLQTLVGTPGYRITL
MT1-MMP act inh = blocks activation of human MT1-MMP | HT1080 RFP-PRO-GFP cells, GFP/RFP ratio fluorescence, overnight; percent of plate control window, DMSO zero | GFP/RFP ratio change, % at 20 µM | 360,000 compounds, 0.061% hits | AID 651647;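 active = GFP/RFP ratio change of at least 30% with cell ATP level not reduced by more than half and red fluorescence within 50% of control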; also: strong numbers were not always called active
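Assay system: HT1080 RFP-PRO-GFP cells. Benchmarks: DMSO vehicle wells and RFP-L50D-GFP reporter cell wells. Times: overnight cell settling, then overnight compound exposure, 37 °C, 5% CO2. Compound: 20 µM single dose, 1% DMSO. Read-out basis: GFP/RFP fluorescence ratio.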
PABP FP inh = PABP-poly(A) binding inhibition; 290,000 compounds, 1% hits; inhibition, % at 35 µM; P11940; AID 2014; PABP-poly(A) RNA binding, fluorescence polarization;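 active = 50% or more with normal probe brightness, or confirmed in later tests; about a fifth of its hits are not listed in these tables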;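 also: calls also rest on retests at 20 µM and on dose response follow-up; controls were probe without protein and protein plus probe with vehicle; some compounds called inactive have numbers as strong as hits; many hits fall short of the cut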
Target sequence (P11940 whole entry, looked up): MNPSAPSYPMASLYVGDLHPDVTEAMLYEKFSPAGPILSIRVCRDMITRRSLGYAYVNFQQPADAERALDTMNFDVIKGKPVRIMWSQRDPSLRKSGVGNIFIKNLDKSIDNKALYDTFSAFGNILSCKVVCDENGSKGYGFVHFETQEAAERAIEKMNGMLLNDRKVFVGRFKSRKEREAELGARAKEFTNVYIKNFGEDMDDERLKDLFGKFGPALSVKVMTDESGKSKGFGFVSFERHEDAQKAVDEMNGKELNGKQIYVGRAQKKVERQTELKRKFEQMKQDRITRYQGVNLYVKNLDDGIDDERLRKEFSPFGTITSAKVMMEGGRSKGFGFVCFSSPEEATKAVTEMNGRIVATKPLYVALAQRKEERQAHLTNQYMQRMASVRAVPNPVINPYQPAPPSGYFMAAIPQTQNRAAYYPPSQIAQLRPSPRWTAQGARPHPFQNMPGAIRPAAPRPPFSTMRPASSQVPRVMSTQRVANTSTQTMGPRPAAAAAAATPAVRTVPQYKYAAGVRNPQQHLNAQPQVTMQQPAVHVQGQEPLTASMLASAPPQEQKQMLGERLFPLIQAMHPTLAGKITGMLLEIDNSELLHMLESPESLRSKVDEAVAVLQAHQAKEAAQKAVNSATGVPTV
CSC inhib = cancer stem cell inhibition; 300,000 compounds, 1.1% hits; inhibition, % at 7.5 µM; cancer stem cell-like cells viability, luminescence;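 active = mean at 75% or more and at least half the replicates too; tested in HMLE shEcad cells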;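 also: 0% = median of negative and 100% = median of positive control wells; the first replicate is given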
Yeast UUG start = modulators of start codon recognition fidelity in yeast; S. cerevisiae UUG-firefly luciferase reporter, luminescence/redox ratio; activity score, % at 18.7 µM; 350,000 compounds, 0.13% hits; AID 602363;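 active = replicate mean at a twofold rise or more, about +100% in these data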;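 also: firefly luciferase made from a UUG start codon reports start codon fidelity; reporter light over untreated wells divided by growth signal over untreated wells; some hits fall short of that in this replicate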
HIV Env fusion = blocks HIV Env-driven cell-cell fusion | HeLa-JRFL Env/CEM21 cell fusion, luciferase | inhibition, % at 12.3 µM | 360,000 compounds, 1.1% hits | AID 651610;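 active = mean replicate inhibition score of at least 50 and every replicate individually at or above 50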;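 also: 0% = plate neutral controls and 100% = maraviroc near 300 nM; one replicate is shown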
eIF4H inh = inhibitors of RNA binding by human eIF4H; Q15056; eIF4H fluorescence polarization binding assay; inhibition, % at 35 µM; 290,000 compounds, 0.94% hits;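 active = 50% or more with normal probe brightness, or confirmed in later tests; about a fifth of its hits are not listed in these tables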;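 also: calls also rest on retests at 20 µM and on dose response follow-up; 0% = protein and probe with vehicle and 100% = probe without protein; strong numbers were not always called active; many hits fall short of the cut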
MT1-MMP act inh RFP = further read-out of MT1-MMP act inh, marked with its call; RFP signal change, %; measured here: RFP expression control read;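 0 = vehicle wells; hits needed this value within 50% of zero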
Starred values were filed as active, the others as inactive; i = inactive; x = no result given. This is a subset; count on the stated rates, not on these rows.

Every second line gives: Rce1 inh, MT1-MMP act inh, MT1-MMP act inh RFP, PABP FP inh, CSC inhib, Yeast UUG start, HIV Env fusion, eIF4H inh
CC(C)(C)NC(=O)C(=O)NN=C1CCCCCCCCCCC1
  i, 2, 3, 5, 10, x, -10, 11
Cc1noc(C)c1COC(=O)CCc1ccc(S(=O)(=O)N2CCCCC2)cc1
  i, 4, 15, 14, 20, 8, -11, -4
N#CCCCN1C(=O)C(=C(C#N)C#N)c2ccccc21
  x, -1, 9, -2, -4, x, 2, -4
Nc1ccc(N=Nc2ccccc2Cl)c(N)n1
  i, 8, -1, 12, 7, -27, -39, 6
Fc1ccc(C2CC(c3ccc(F)cc3)n3ncnc3N2)cc1 (centres undefined)
  i, 6, -3, 2, -9, -26, -93, 2
CCCN1C(=O)/C(=c2\s/c(=C3\C=Cc4ccccc4N3CC)c(=O)n2-c2ccccc2)SC1=S
  i, x, x, -20, 10, x, x, 5
O=C(O)c1nn(CCOc2c(Cl)cccc2Cl)c(=O)c2ccccc12
  x, 5, 6, -7, 12, -10, 28, -5
O=C(N=C1SC2CS(=O)(=O)CC2N1c1ccc(Br)cc1F)C1CC1 (centres undefined)
  i, -4, -2, x, -6, -20, -1, x
CNC(=O)COC(=O)c1ccccc1NC(=O)c1ccco1
  i, -2, -6, 0, 18, -26, -8, 0
CC1CCC(NC(=O)c2cccc(S(=O)(=O)NCc3ccccc3)c2)CC1 (centres undefined)
  i, 5, 0, x, -2, x, 12, x
O=C(NCCCN1CCOCC1)C(=O)N/N=C/c1ccccc1Cl
  i, -2, 2, 7, 1, x, -1, -3
O=C(CCC1CCCN(C(=O)c2ccsc2)C1)NCc1ccc(F)c(F)c1 (centres undefined)
  i, 2, 4, -6, x, 1, 4, 0
C=CCN(CC=C)Cc1nc(N)nc(Nc2ccccc2C)n1
  i, 0, 3, -9, -15, -33, 7, 8
CC(C)[C@H](NC(=O)C1(c2ccccc2)CCN(C(=O)OC(C)(C)C)CC1)C(=O)O
  i, x, x, -6, 6, 11, -8, 1
Cc1cc(N2CCC(C(=O)NCC3CC3)CC2)nc(-c2ccccc2)n1
  i, -5, 2, 8, -5, 5, -57, 3
Cc1cccn2c(=O)c3cc(C(=O)NCCc4ccccc4)c(=N)n(CC4CCCO4)c3nc12 (centres undefined)
  i, -1, 1, -3, -4, -4, -11, 1
O=[N+]([O-])c1cccc(-c2nnc(CNC3CC3)o2)c1
  i, -2, -1, 7, 0, x, 5, 4
COCCn1c(-c2ccc(C)cc2)nc2oc3cc(OC)ccc3c(=O)c2c1=O
  i, 3, 2, 3, -7, -7, -15, -3
CC(C)(C)N(Cc1cc2ccccc2[nH]c1=O)C(=O)c1cccc([N+](=O)[O-])c1
  i, -4, -5, -11, -22, -7, 10, -11
O=C(CN1CCSCC1)N/N=C/c1ccc(Cl)cc1
  i, x, x, 7, -13, x, 4, 10

Part of the list above, showing only CSC inhib:
Molecule	CSC inhib
C=CCN(CC=C)Cc1nc(N)nc(Nc2ccccc2C)n1	-15
CC(C)[C@H](NC(=O)C1(c2ccccc2)CCN(C(=O)OC(C)(C)C)CC1)C(=O)O	6

More structures follow:
Every second line gives: Rce1 inh, MT1-MMP act inh, MT1-MMP act inh RFP, PABP FP inh, CSC inhib, Yeast UUG start, HIV Env fusion, eIF4H inh
C=CCn1c(SCC(=O)NCc2ccco2)nnc1C1CCCCC1
  i, -2, -1, x, -13, 2, -4, x
Cc1cc(-n2c(C)c3c(C)nnc(C)c3c2C)ccc1N
  i, x, x, 9, -8, x, 4, 1
Cc1cc(C)c2cc(CN(CCN(C)C)C(=O)Nc3ccccc3Cl)c(=O)[nH]c2c1
  i, -2, -2, 1, 9, x, 22, -5
Clc1ccc(N2CCOCC2)nn1
  i, 1, 3, 5, -14, x, -7, 3
COc1ccccc1/C=C(/CC(=O)NCc1ccccc1)c1nc2ccccc2s1
  i, -6, -8, 20, 3, -9, 21, -2
CSCC[C@H](NC(=O)N1CCn2c1nc1ccccc12)C(=O)NCc1ccco1
  i, 3, 2, 5, -17, -9, 4, 0
Cc1ccccc1C(=O)NNC(=O)c1ccoc1C
  i, 6, 3, -6, 3, -8, -16, -8
N#CCc1ccc(OC(=O)c2cccnc2Cl)cc1
  i, 1, 4, x, 0, -10, -46, x
COc1ccccc1CN1CCNC(=O)C1CC(=O)NCC1CCOCC1 (centres undefined)
  i, 3, 5, 8, 1, -6, 3, -1
COc1ccc(CNC(=O)C(C)OC(=O)CCN2C(=O)C3CC=CCC3C2=O)cc1 (centres undefined)
  i, 0, 2, x, 2, -5, x, x
O=C(Oc1cccc([N+](=O)[O-])c1)N1CCCCC1
  x, 2, 4, -7, -10, x, 13, -1
Cc1sc2nc(C)n(/N=C/N(C)C)c(=O)c2c1C
  i, -4, 1, 4, -1, -11, -15, -1
COc1ccc(-n2c(=O)[nH]cc(C(=O)N3CCCc4ccccc43)c2=O)cc1
  i, 1, 5, 0, -17, x, 25, -8
Cc1c(C)n(Cc2ccccc2)c2ccc(C(=O)NCCN3CCOCC3)cc12
  i, 7, -1, 7, 22, -2, -5, -2
CC(C)(C)OC(=O)NCC1CCC(C(=O)NC[C@H](CC(=O)O)c2ccc(Cl)cc2)CC1 (some centres undefined)
  i, 0, 5, 4, -16, -4, 13, -1
CCOC(=O)C1(CCOC)CCN(Cc2nc(C(C)C)cs2)CC1
  i, 0, 3, 1, -8, x, 2, 2
O=c1oc(Cl)c(Cl)c2ccccc12
  x, 0, 4, x, 64, -3, x, x
CCc1ccc(S(=O)(=O)/N=C2\C=C(Nc3ccc(C(=O)O)cc3)C(=O)c3ccccc32)cc1
  i, 14, -1, 41, x, -25, 73*, -5
COC(=O)c1ccc(C(=O)N2CCCC(Nc3ccc(C(C)C)cc3)C2)nc1 (centres undefined)
  i, -11, 1, -4, 6, 5, 2, -10
Cc1sc(NC(=O)CSc2nnc3scc(-c4ccccc4)n23)c(C#N)c1C
  i, -7, -3, 8, -16, -9, 25, -4
COc1ccc(N(C)S(=O)(=O)c2cccc(C(=O)OCC(=O)N3CC(C)CC(C)C3)c2)cc1 (centres undefined)
  x, 10, -8, x, -15, -17, x, x
O=C(Nc1cccc2ccccc12)/C(=C/c1ccc([N+](=O)[O-])cc1)NC(=O)c1ccccc1
  i, 4, 4, -9, 2, -14, -177, 12
Cc1cc(-n2c(C)cc(C(=O)CN3C(=O)NC4(CCCCCC4)C3=O)c2C)no1
  i, -1, 0, 0, x, -1, 2, -5
CCCNCc1cc(OCC)c(OCC(=O)Nc2ccccc2)cc1Br
  i, 4, 3, 0, 0, x, -48, -4
CCN(CC)S(=O)(=O)c1ccc2nc(NC(=O)c3ccco3)sc2c1
  i, 0, 3, 11, -2, x, -39, -3
CCOC(OCC)c1cn(Cc2ccc(C(=O)c3ccccc3)cc2)nn1
  i, -2, -13, -2, 18, -18, -5, 1
O=C(CSc1nc(=O)n2ccccc2n1)NC1CCCCC1
  i, 0, 0, x, -2, -11, -6, x
O=S(=O)(c1ccc(C2CCCCC2)cc1)N1CCCC1
  i, 1, -7, 6, 6, 2, 21, -3
COc1ccc(OCC(=O)Nc2ccc(S(=O)(=O)N3CCOCC3)cc2)cc1
  i, 1, -4, -7, 2, 4, 3, 2
COc1ccc(CCCc2nnc(SCC(=O)N/N=C\c3ccc(O)c(OC)c3)o2)cc1C
  i, 1, -10, -3, -4, -11, x, -5
Cc1ccccc1C(=O)NNC(=S)NC(=O)COc1ccccc1
  i, 6, 9, -4, 8, x, x, 3
CCN1N=C(c2ccccc2)CCC1=O
  i, 0, 5, 7, -6, -18, 5, 4
CCCCNC(=O)Nc1ncn[nH]1
  i, -7, -3, 4, 4, 4, 3, 1
Cc1ccc(SC(C)C(=O)NCC(C)C)cc1 (centres undefined)
  i, -1, 4, -5, -6, -8, x, 4
C/C(O)=C/c1nc2ccccc2[nH]c1=O
  i, -11, -1, -1, -4, x, x, -12
Cc1ccc(OCCC(=O)OCC(=O)C(C)(C)C)cc1
  i, 2, 3, -12, 0, 0, x, -5
Cc1csc(NC(=O)CSc2nnc(-c3ccoc3C)n2CCc2ccccc2)n1
  i, -11, -6, 0, -12, -7, x, -6
COC(=O)/C(C(C)=O)=C(\C=C\N(C)C)N(C)C
  i, 0, 1, 3, -18, -22, x, 2
COc1ccc(C(=O)NN/C(C)=C/C(=O)C(F)(F)C(F)(F)C(F)(F)F)cc1
  i, 0, 5, 20, 123*, x, 27, -2
COc1cccc(/C=N/Nc2ccc([N+](=O)[O-])cc2)c1O
  i, -7, -7, -10, 36, -15, -187, -23
COc1ccnc(-n2cccc2C=O)c1C#N
  i, 0, 5, 6, -16, x, x, 5
Cc1ccccc1C(=O)NC1CCN(C(=O)NCc2ccccc2)CC1
  i, 1, 0, 1, -9, -21, -8, -3
CCN(C(=O)CSc1nnnn1C)C1CCS(=O)(=O)C1 (centres undefined)
  x, 1, 5, x, x, -17, 3, x
Cc1ccccc1C(=O)c1cccn1CC(=O)NC(C)c1ccccc1 (centres undefined)
  i, -4, -3, -4, -15, 0, -4, -4
O=C(Cn1cnc2c(nnn2-c2ccc(F)cc2)c1=O)NCC1CCCO1 (centres undefined)
  i, 0, -1, -2, -7, -4, x, -10
O=C(COC(=O)c1cccc(C(=O)OCC(=O)NC2CC2)n1)NC1CC1
  i, 2, 7, 5, -3, x, 3, 17
CCOc1ncccc1C(=O)NCc1ccccc1Cl
  i, 0, 2, -6, x, -24, 2, 2
Cc1ccc(S(=O)(=O)NNC(=O)C2COc3ccccc3O2)cc1C (centres undefined)
  i, 5, -1, -4, -7, x, -6, -8
CCN(CC)CCCn1c(=S)[nH]c2cc(C(=O)OC)ccc2c1=O
  i, -2, 2, -10, 0, x, -66, -4
CC1CN(C(=O)CSc2nc(N)cc(N)n2)CC(C)O1 (centres undefined)
  x, -3, 2, x, x, -16, 9, x
O=C(Cc1cccs1)Nc1ccc(Cl)c(S(=O)(=O)N2CCOCC2)c1
  x, -7, -22, x, x, -19, 8, x
Cc1sc(NC(=O)CN(Cc2ccccc2)C(=O)C(C)C)c(C(N)=O)c1C
  i, 2, -4, -1, -12, x, 13, -3

Grouped by structure, the compounds so far with an aryl methoxy group (11)
Every second line gives: Rce1 inh, MT1-MMP act inh, MT1-MMP act inh RFP, PABP FP inh, CSC inhib, Yeast UUG start, HIV Env fusion, eIF4H inh
COCCn1c(-c2ccc(C)cc2)nc2oc3cc(OC)ccc3c(=O)c2c1=O
  i, 3, 2, 3, -7, -7, -15, -3
COc1ccccc1/C=C(/CC(=O)NCc1ccccc1)c1nc2ccccc2s1
  i, -6, -8, 20, 3, -9, 21, -2
COc1ccccc1CN1CCNC(=O)C1CC(=O)NCC1CCOCC1 (centres undefined)
  i, 3, 5, 8, 1, -6, 3, -1
COc1ccc(CNC(=O)C(C)OC(=O)CCN2C(=O)C3CC=CCC3C2=O)cc1 (centres undefined)
  i, 0, 2, x, 2, -5, x, x
COc1ccc(-n2c(=O)[nH]cc(C(=O)N3CCCc4ccccc43)c2=O)cc1
  i, 1, 5, 0, -17, x, 25, -8
COc1ccc(N(C)S(=O)(=O)c2cccc(C(=O)OCC(=O)N3CC(C)CC(C)C3)c2)cc1 (centres undefined)
  x, 10, -8, x, -15, -17, x, x
COc1ccc(OCC(=O)Nc2ccc(S(=O)(=O)N3CCOCC3)cc2)cc1
  i, 1, -4, -7, 2, 4, 3, 2
COc1ccc(CCCc2nnc(SCC(=O)N/N=C\c3ccc(O)c(OC)c3)o2)cc1C
  i, 1, -10, -3, -4, -11, x, -5
COc1ccc(C(=O)NN/C(C)=C/C(=O)C(F)(F)C(F)(F)C(F)(F)F)cc1
  i, 0, 5, 20, 123*, x, 27, -2
COc1cccc(/C=N/Nc2ccc([N+](=O)[O-])cc2)c1O
  i, -7, -7, -10, 36, -15, -187, -23
COc1ccnc(-n2cccc2C=O)c1C#N
  i, 0, 5, 6, -16, x, x, 5
